# Source: PubChem
# Vaccinia mCherry = qHTS for Stage-Specific Inhibitors of Vaccinia Orthopoxvirus: mCherry Reporter Primary qHTS | Potency, µM (titrated, usually from 36.5 µM), inactives show top-dose activity change, negative = inhibition, actives largely listed as inhibitors | AID 720579, 2013 | hit rate 0.63% among 310,000 | Vaccinia virus mCherry reporter infection, fluorescence; about a quarter of the inactives have no number; active = well fitted inhibition curve with a large enough effect; inconclusive = small, poorly fitted or top-dose-only effect; inactive = no such curve, though single readings can be large or run the other way; tested in A549 cells; note: nearly all actives have a fitted effect of over 35% in size; inactives centre near -10
# VACV Venus inh = qHTS for Stage-Specific Inhibitors of Vaccinia Orthopoxvirus: Venus Reporter Primary qHTS; Vaccinia virus Venus reporter expression, fluorescence; hit rate 0.46% among 330,000; AID 720580, 2013; Potency, µM (titrated, usually from 36.5 µM), without a hit: at the highest dose activity change, negative = inhibition, usual class: inhibitors; active means well fitted inhibition curve with a large enough effect; inconclusive means small, poorly fitted or top-dose-only effect; inactive means no such curve, though single readings can be large or run the other way; tested in A549 cells; note: nearly all actives have a fitted effect of over 30% in size; inactives centre near -10
# * marks the source's active call; other numbers are inactive results; i = inactive; ? = inconclusive; nt = not tested or not shown; & = joins results of further samples; [ ] = dose if it differs, or a comment. % is set by controls: 0 for no effect and ±100 for the full control effect; potency is the fitted concentration of half-maximal effect.
SMILES,Vaccinia mCherry,VACV Venus inh
CC1(C)CC(=O)C2=C(C1)OC(N)=C(C#N)C2c1ccccc1OC(=O)N1CCOCC1 (configuration not stated),-9.8%,-4.3%
Cc1ccc([C@H]2N[C@]3(CCCN(Cc4ccccc4)C3=O)[C@H]3C(=O)N(C)C(=O)[C@@H]23)cc1,i,-11.0%
O=c1[nH]cc(NCc2ccccc2)c(=O)[nH]1,-17.8%,-11.2%
Cc1ccc(C(O)c2nccn2C)o1 (configuration not stated),-9.0%,-2.7%
COc1ccc(C(=O)C=CNNC(=O)c2ccc(Cl)cc2)cc1,?,-11.1%
Cc1ccc(OCC(=O)Nc2ccccc2OCc2cc(=O)n3ccccc3n2)cc1C,-14.8%,-29.1%
COCCCOc1ccnc(CS(=O)c2nc3ccccc3[nH]2)c1C (configuration not stated),-5.0%,-26.1%
CCOc1ccc(S(=O)(=O)N2CCCC(C(=O)NCC3CCCO3)C2)cc1Cl (configuration not stated),-16.5%,-28.5%
Cc1c(NC=C(C#N)C#N)c(=O)n(-c2ccccc2)n1C,-12.7%,-5.0%
COc1cc2sc(-c3ccccc3OC)c(-c3ccc(OCCN4CCOCC4)cc3)c2cc1OC,-14.8%,-11.9%
O=C(Nc1cc(S(=O)(=O)N2CCOCC2)ccc1Oc1ccc(F)cc1)C1=COCCO1,-29.6%,-1.9%
O=C(O)CSCC(=O)Nc1cc(C(F)(F)F)ccc1Cl,i,-1.6%
CCc1cc2ccc(C)cc2nc1SCC(=O)NC1CCCC1,-6.9%,3.1%
COc1ccc(OC)c2[nH]c(=O)c(CCNC(=O)C(C)C)cc12,i,-3.9%
CC1(C(=O)N(CC(=O)NC2CCCC2)Cc2ccccc2)CC(=O)N=C2C=CC=CN21 (configuration not stated),-5.4%,-10.0%
O=C(NC1CCCCC1)c1cnn2c1NC(=C1CC1)C=C2C(F)F,-22.9%,?
O=C1CCc2cc(NS(=O)(=O)c3ccc([N+](=O)[O-])cc3)cc3c2N1CCC3,?,?
COC(=O)c1cccnc1-n1c(=O)c2cccnc2n(CC(=O)Nc2ccccc2F)c1=O,-4.9%,0.1%
CCCC(=O)Nc1cc(OC)c(C(=O)OC)cc1Cl,i,7.2%
CC(=O)Nc1cccc(-c2ccnc3c2CC(C(=O)NCc2cccs2)O3)c1 (configuration not stated),-12.7%,?
COc1cccc(NC(=O)c2ocnc2C)c1,-14.1%,-4.1%
CC(C)C(=O)NCCc1nc2ccccc2n1CCc1ccccc1,-1.2%,-3.0%
Cc1ccc2nsnc2c1S(=O)(=O)N1CCN(C(=O)C2CCCO2)CC1 (configuration not stated),i,-7.2%
CCc1nc2ccccc2n1Cc1ccc(OC)c(OC)c1,-20.1%,-15.5%
NS(=O)(=O)c1ccc(NC(=O)CN2CCN(S(=O)(=O)c3cccs3)CC2)cc1,-10.1%,-5.0%
Nc1ncnc2c1ncn2C1OC(CO)C(O)C1N (configuration not stated),-0.2%,-3.1%
COCCN(C(=O)c1cc(OC)c(OC)c(OC)c1)c1c(N)n(Cc2ccccc2)c(=O)[nH]c1=O,-0.6%,-16.8%
Cc1nc2cccnc2n1C1CCN(C(=O)Nc2ccccc2C(F)(F)F)CC1,-1.8%,-1.1%
CCn1c(SCC(=O)NCCc2ccc(OC)c(OC)c2)nc2c([nH]c3ccccc32)c1=O,-1.5%,-15.4%
Cc1ccc(-n2c(/C=C/c3cccc4ccccc34)nc3ccccc3c2=O)cc1,-13.4%,-14.9%
Cc1cc(NC(=O)CSc2nc3c(c(=O)n2C)SCC3)no1,-20.9%,-19.5%
CCc1ccc(CN(Cc2ccco2)C(=O)COc2ccc(Cl)cc2C)cc1,-2.4%,-14.7%
CC1CCN(CC(=O)Nc2ccc(Cl)cc2[N+](=O)[O-])CC1,-5.4%,0.7%
O=C(/C=C/c1ccco1)OCc1nnc(-c2ccc(Cl)cc2)o1,-13.4%,-3.6%
CCOC(=O)NC(=O)CSc1ccccn1,-11.8%,-7.6%
Cc1ccc(CNC(=O)c2ccc(Cl)c(S(N)(=O)=O)c2)n1C,-6.5%,-5.6%
O=C(NNc1ccccc1[N+](=O)[O-])Nc1ccccc1,i,-7.0%
CCCCN(C(=O)c1ccc(S(=O)(=O)N(C)C)cc1)c1nc2ccccc2s1,i,-8.2%
O=C(NCC(=O)c1ccccc1)OCc1ccc([N+](=O)[O-])cc1,-7.4%,-5.8%
Cc1cc(NC(=O)CSc2nc(C(C)C)nc3sc4c(c23)CCCC4)no1,i,-14.4%
CC(C)NC(=O)Nc1ccc2c(c1)C(=O)N([C@H](C)CO)C[C@H](C)[C@@H](CN(C)C(=O)Nc1ccccc1)O2,i,-5.7%
O=C(NCc1ccc(F)c(F)c1)C1CCC(=O)N(CC2CCCCC2)C1 (configuration not stated),-5.3%,-20.0%
CC(=O)c1cccc(Nc2ncnc3ccc(Br)cc23)c1,-0.3%,-12.4%
CC(=O)NC(Cc1ccccc1F)C(=O)NC1CCN(C(=O)NCc2ccccc2)CC1 (configuration not stated),i,-9.6%
O=C(CSc1ccc(/C=N/NC(=O)c2cccc(F)c2)o1)Nc1ccccc1,-20.2%,-5.9%
c1ccc(-c2ccc(C(c3ccccc3)n3ccnc3)cc2)cc1 (configuration not stated),-28.9%,-13.9%&-14.3%
CCCOc1ccc(S(=O)(=O)n2cc(F)c(=O)[nH]c2=O)cc1,-27.3%,-5.1%
COC(=O)[C@]1(C)C[C@H]1[C@H](NP(=O)(c1ccccc1)c1ccccc1)c1ccccc1,i,-2.1%
COc1ccccc1NC(=S)N(C(C)C)C(C)c1ccccn1 (configuration not stated),0.0%,6.0%
CC(C)CC(=O)Nc1ccc(-c2nc3ccccc3c(=O)[nH]2)cc1,-12.7%,-11.8%
Cc1cccn2c(=O)c(C(=O)NCCc3ccc(S(N)(=O)=O)cc3)c(O)nc12,-15.7%,-8.4%
COc1ccc(CCNS(=O)(=O)c2cc(/C=C/C(=O)O)ccc2C)cc1OC,i,-12.7%
O=C(O)c1cc(Br)ccn1,i,15.3%
Cc1nc2nncn2c(N2CCN(c3ccccc3)CC2)c1C,-21.6%,-20.9%
Cc1nn(CC(=O)NCc2ccccc2Cl)c(=O)c2cccn12,-11.6%,-10.4%
COc1ccccc1CNC(=O)COC(=O)C1CCN(c2ccc(C(F)(F)F)cn2)CC1,-15.7%,-4.9%
COc1ccc(CNC(=S)Nc2cccc(C)c2)cc1,nt,-16.9%
CN(C)c1nc(N)nc(-c2cccnc2)n1,nt,-2.2%
CCCS(=O)(=O)NC(=O)C1(C)CCCN(C(=O)c2ccc(C#N)cc2)C1 (configuration not stated),i,-5.2%
CC1CC2=C(NC(=S)NC2c2cccc(F)c2)/C(=C/c2cccc(F)c2)C1 (configuration not stated),?,?
# Next part:
SMILES,Vaccinia mCherry,VACV Venus inh
COc1ccc(CN2C[C@@H](CO)O[C@@H](n3cnc4c(NCc5ccncc5)ncnc43)C2)cc1,41.7%[activator],2.8%
CC(C)CNc1ncnc2c1ncn2[C@H]1CN(Cc2ccc3c(c2)OCO3)C[C@@H](CO)O1,-4.9%,-4.7%
CCN(CC)C(=O)C[n+]1cccc(C(N)=O)c1,i,3.2%
Cc1ccccc1OCC(=O)NCCCNC(=O)c1cccnc1,7.1%,14.0%
CC(C)(C)C1(C)OC(C(N)=O)C(C(N)=O)O1 (configuration not stated),i,-13.9%
Clc1ccccc1-c1nc2ccccc2[nH]1,-8.3%,4.0%
O=C(N=Nc1c(O)n(Cc2ccccc2)c2ccccc12)c1ccc(O)cc1,i,-5.4%
O=C(CCNc1ccc(Cl)c(C(F)(F)F)c1)c1ccco1,?,-20.6%
Cc1c(C(=O)O)oc2ccc(S(=O)(=O)NCc3ccccc3)cc12,-12.8%,-0.5%
CCC(=O)Nc1nnc(S(=O)(=O)N(C)Cc2ccc(Cl)cc2)s1,i,-8.4%
O=C(NC1CCCCC1)c1cc(-c2ccco2)on1,-4.4%,6.3%
Cc1nc2sc(C(c3ccco3)N3CCC(C)CC3)c(O)n2n1 (configuration not stated),i,3.4%
O=C(CCc1nnc(CCCCc2ccccc2)o1)NCCN1CCOC1=O,-18.2%,-6.7%
CCOC(=O)c1oc2ccccc2c1CN1CC(C)OC(C)C1 (configuration not stated),-4.0%,0.1%
Cc1ccc(NC(=O)CSc2ncc(S(=O)(=O)c3ccc(C(C)C)cc3)c(=O)[nH]2)cc1C,-4.0%,1.2%
Cc1ccc(C(=O)N2CCCCCC2)cc1S(=O)(=O)N1CCOCC1,1.7%,-7.3%
CCc1ccc([C@@H]2CC(=O)[C@@H]3CN(S(=O)(=O)c4ccccc4)[C@H](c4ccc(OC)cc4)C[C@@H]3N2S(=O)(=O)c2ccc(C)cc2)cc1,19.1%,-4.7%
COc1ccc(C(=O)NCCSc2ccccn2)cc1,nt,-38.0%
Cc1ccc(N2CC(O)(c3cccs3)[N+]3=C2CCCC3)cc1 (configuration not stated),?,5.3%
COc1ccc(Cn2c(CCC(=O)Nc3ccccc3OC)nc3cccnc32)cc1,-7.7%[7.34 µM],-1.6%&-3.1%
CC(=O)c1ccc(NC(=O)CSc2nnc(NC(=O)Nc3ccccc3)s2)cc1,-2.8%[7.34 µM],-3.9%[7.34 µM]
Cc1ccc(CCNC(=O)C2CCCN(S(C)(=O)=O)C2)cc1 (configuration not stated),-13.0%,-2.0%
Cc1cc(C)nc(NC(N)=NCCc2ccccc2)n1,?,?
CCC(C)N(C)Cc1cccc(C2(O)CCN(S(=O)(=O)c3ccc(F)c(C)c3)CC2)c1 (configuration not stated),?,?
COCCNC(=O)c1onc(CS(=O)(=O)c2cc(C)cc(C)c2)c1C(=O)NCCOC,i,-11.9%
COc1ccccc1NC(=S)NC(=O)CCc1ccccc1,i,-12.0%
Cc1ccc(OC(=O)c2sc3ncn(C)c(=O)c3c2C)cc1,-9.8%,-12.6%
CCn1ncc(/C=C2/SC(=S)NC2=O)c1C,-13.6%,-3.5%
CNS(=O)(=O)c1cccc(C(=O)OCC(=O)N2CCc3ccccc3C2)c1,-10.0%,-4.3%
CC(C)C(C)(C#N)NC(=O)COC(=O)C1CCN(S(=O)(=O)c2ccc3c(c2)OCCO3)CC1 (configuration not stated),-17.8%,-9.3%

# Ordered by molecular weight (low to high): some entries from above.
SMILES,Vaccinia mCherry,VACV Venus inh
Cc1cc(C)nc(NC(N)=NCCc2ccccc2)n1,?,?
Cc1ccc(N2CC(O)(c3cccs3)[N+]3=C2CCCC3)cc1 (configuration not stated),?,5.3%
Cc1ccc(CCNC(=O)C2CCCN(S(C)(=O)=O)C2)cc1 (configuration not stated),-13.0%,-2.0%
COCCNC(=O)c1onc(CS(=O)(=O)c2cc(C)cc(C)c2)c1C(=O)NCCOC,i,-11.9%

# (further entries)
SMILES,Vaccinia mCherry,VACV Venus inh
CCN(CC)C(=O)CSc1nc2ccc(NC(=O)CSc3nnc(N)s3)cc2s1,nt,-13.6%
Cc1nc2ccc(C(=O)N/N=C/c3ccc(O)cc3)cc2[nH]1,i,11.9%
O=C(c1noc2c1CCCCC2)N1CCN(c2cccc(Cl)c2)CC1,i,-16.3%
Cc1cc(S(=O)(=O)N(Cc2ccccc2F)C2CC2)ccc1-n1cnnn1,-19.4%,-21.3%
CN(C(=O)c1oc(=O)c2ccccc2c1-c1ccccc1)c1cccc(Cl)c1,i,-11.3%
Clc1ccc(OCC#CCN2CCCC2)cc1,i,-15.4%
CC(O/N=C/c1ccc(OC(F)F)cc1)C(=O)Nc1cccc(S(=O)(=O)N2CCOCC2)c1 (configuration not stated),-14.3%,-20.7%
N/C(=N\[N+](=O)[O-])N1CCN(C(=O)c2ccccc2)CC1,i,-18.7%
CCOc1ccc(S(=O)(=O)N2CCOCC2)cc1NC(=O)CN1C(=O)NC(CC)(c2ccccc2)C1=O (configuration not stated),-15.1%,-7.3%
Nc1cc(C(Cl)=C(Cl)Cl)c(S(N)(=O)=O)cc1S(N)(=O)=O,-14.3%,-10.7%&-9.9%
CSc1ncc(CN2CCCC(C(=O)c3ccccc3SC)C2)cn1 (configuration not stated),i[7.34 µM],-3.7%[7.34 µM]
COc1ccc2oc(-c3ccc(C)c(NC(=O)c4ccc(N5CCCCC5)c([N+](=O)[O-])c4)c3)nc2c1,14.2%,1.3%
Cn1c(=O)n(Cc2ccccc2Cl)c2ccccc21,i,-8.6%
Cc1ccccc1-c1nc(CS(=O)(=O)CC(=O)N2CCCCC2)c(C)o1,?,-20.4%
N/C(CCCN1CCCCC1)=N/O,-19.9%,-16.7%

# 4 entries drawn at random from the list so far:
SMILES,Vaccinia mCherry,VACV Venus inh
CCN(CC)C(=O)CSc1nc2ccc(NC(=O)CSc3nnc(N)s3)cc2s1,nt,-13.6%
N/C(=N\[N+](=O)[O-])N1CCN(C(=O)c2ccccc2)CC1,i,-18.7%
CN(C(=O)c1oc(=O)c2ccccc2c1-c1ccccc1)c1cccc(Cl)c1,i,-11.3%
Clc1ccc(OCC#CCN2CCCC2)cc1,i,-15.4%

# (continued)
SMILES,Vaccinia mCherry,VACV Venus inh
CCOc1ccc(OCCOCCn2c(-c3ccc(Cl)cc3)nc3ccccc3c2=O)cc1,-9.4%,-11.0%
COC(=O)c1ccc(CNC(=O)c2ccccc2C(=O)NCC2(CBr)OCCO2)cc1,i,-7.3%
N#Cc1ccc(-c2cn(-c3ccccc3)c3[n+]2CCCS3)cc1,i,-4.9%
COc1cccc2c1Oc1ncccc1N(C(=O)CCC(=O)NCc1ccc(OC(C)C)cc1)C2,-7.9%,-15.1%
CC(C)NC(=O)COC(=O)c1cc(=O)[nH]c2ccccc12,-15.2%,-5.9%
O=C(O)c1ccccc1-c1nc2ccccc2n1-c1ccccc1,?,?
